# Bioassay records as filed in PubChem.
# KCNQ2 inh – KCNQ2 channel blockers in CHO-K1 cells – cell-based, FluxOR thallium flux, B-score, primary screen (AID 2156); O88943; 20 min; active compounds read low; only compounds with negative scores are shown here; some inactives read as strong as hits; B-score at 10 µM; actives 1.1% (n = 310,000);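 active = fluorescence ratio B-score at most minus 3 library SDs, with starting brightness B-score within 2 library SDs, cut at about -5.5 in these data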
# Target sequence (O88943 whole entry, looked up): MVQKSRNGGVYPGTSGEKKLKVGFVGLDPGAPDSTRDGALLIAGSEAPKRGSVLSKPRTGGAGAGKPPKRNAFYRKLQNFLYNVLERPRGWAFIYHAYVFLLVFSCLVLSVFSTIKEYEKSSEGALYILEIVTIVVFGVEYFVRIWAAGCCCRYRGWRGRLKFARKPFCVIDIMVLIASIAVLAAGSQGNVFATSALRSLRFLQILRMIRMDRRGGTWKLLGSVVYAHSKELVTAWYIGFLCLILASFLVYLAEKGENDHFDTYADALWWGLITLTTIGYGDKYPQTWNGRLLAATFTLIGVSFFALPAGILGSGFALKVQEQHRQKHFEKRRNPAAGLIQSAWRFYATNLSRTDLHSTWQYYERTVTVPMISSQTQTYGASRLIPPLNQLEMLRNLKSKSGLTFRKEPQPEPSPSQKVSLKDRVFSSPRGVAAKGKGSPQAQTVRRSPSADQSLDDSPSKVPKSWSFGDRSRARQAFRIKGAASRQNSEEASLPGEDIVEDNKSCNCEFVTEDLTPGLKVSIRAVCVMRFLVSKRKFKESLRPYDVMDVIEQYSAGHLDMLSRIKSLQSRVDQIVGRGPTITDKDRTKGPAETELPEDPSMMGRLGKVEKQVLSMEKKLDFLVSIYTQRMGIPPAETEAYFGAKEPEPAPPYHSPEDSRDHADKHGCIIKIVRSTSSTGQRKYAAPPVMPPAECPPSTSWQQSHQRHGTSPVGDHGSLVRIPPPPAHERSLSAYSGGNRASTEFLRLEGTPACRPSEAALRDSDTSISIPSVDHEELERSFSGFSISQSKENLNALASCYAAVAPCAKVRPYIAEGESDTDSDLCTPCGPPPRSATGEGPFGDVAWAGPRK
# KCNQ2 inh baseline – further read-out of KCNQ2 inh, marked with its call; B-score; measured here: initial fluorescence intensity artifact check;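 brightness before thallium and not channel activity; 0 = typical well and far values either way flag optical interference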
# * hit, by the source's call; i = inactive. An excerpt (hit frequency here may not be typical).
KCNQ2 inh baseline	KCNQ2 inh	Molecule
-0.33	i	CSc1nccn1C(=O)c1ccccc1[N+](=O)[O-]
-0.41	i	CC1(C)C(=O)OC(C(=O)c2ccccc2)C(C)(C)C1=O (stereo not drawn)
-1	i	CC(C)C(=O)NCCn1ccc2ccccc21
-0.55	i	CN1CCN(CCCNC(=O)Cn2nc(-c3ccccc3)ccc2=O)CC1
1	i	COc1ccc(CCc2nnc(CCC(=O)NCC3CCCO3)o2)cc1 (stereo not drawn)
-0.29	i	COc1ccccc1CNC(=O)CCC(=O)N1CCOc2ccc(C)cc21
1.9	i	CC(C)C[C@@H](CN(N=O)[C@@H](Cc1ccccc1)CN(C)N=O)N(CCc1ccccc1)N=O
-0.04	i	Cc1ccc(C(=O)NNC(=O)C2CCN(S(=O)(=O)c3ccc(Cl)cc3)CC2)cc1
2.2	i	Oc1cccc(/C=N\Nc2nncc(-c3ccccc3)n2)c1
-0.04	i	CCOC(=O)c1cccc(COC(=O)c2cccc(-c3nnc(-c4ccccc4)o3)c2)c1
0.07	i	C/C(=N\Nc1ccc(F)cc1)c1ccncc1
1.2*	-9.3*	CC(C)Cn1c(O)c(N=NC(=O)c2cccc(S(=O)(=O)N3CCCCC3)c2)c2ccccc21
-2.6	i	CSc1ccccc1NC(=O)COC(=O)CSc1ccc(C)cc1
0.22	i	CCOc1ccccc1CN1CCN(Cc2cc3ccccc3[nH]2)CC1CCO (stereo not drawn)
0.89	i	N#CC1=C(N)N(c2ccccc2)C(c2ccccc2)C1(C#N)C#N (stereo not drawn)
-0.27	i	CCN(CCCNC(=O)CCn1c(=O)[nH]c2ccsc2c1=O)c1ccccc1
2	i	CC(Oc1cccc2c1OC(C)(C)C2)C(=O)O (stereo not drawn)
-1.3	i	CCOC(CNC(=O)c1nnc(Cc2cc(OC)c(OC)c(OC)c2)o1)OCC
0.59	i	O=C(c1ccc(F)cc1)N1CCC(C(=O)N2CCN(S(=O)(=O)c3cccc([N+](=O)[O-])c3)CC2)CC1
-0.17	i	Cc1cccc(-c2nc(S(=O)(=O)c3ccccc3)c(N3CCOCC3)o2)c1
0.49	i	CCOc1cc(CNc2ccc3cn[nH]c3c2)ccc1OC
0.42	i	CCSC1=NC(C)(C)C=C(/C=C/c2ccc(Cl)cc2Cl)N1
1.4	i	COC(=O)Cn1nc(-c2ccccc2)c2ccccc2c1=O
-2.6	i	CCOC(=O)C1CCN(Cc2ccccc2C(F)(F)F)CC1
0.41	i	CCN1CCN(CC(=O)c2cc(OC)c(OC)c(OC)c2)CC1
-0.45	i	Cc1cc(/C=C2\SC(N)=NC2=O)c(C)n1-c1ccccc1
2.3	i	CN1CCN(Cc2c(C(=O)N/N=C/c3cccc(Br)c3)nnn2-c2nonc2N)CC1
-0.08	i	O=C(/C=C/Nc1ccccc1)c1ccc(Cl)cc1Cl
-0.67	i	CN(C)/N=C/c1ccc(OS(=O)(=O)c2ccccc2)cc1
0.42	i	Cc1nc(NC(CC(C)C)C(=O)O)c2nc(C)oc2n1 (stereo not drawn)
1.3	i	O=C(O)c1ccc(COc2ccccc2Cl)cc1
-0.01	i	c1ccc(CNc2nc(CN3CCOCC3)nc3scc(-c4ccccc4)c23)cc1
-0.49	i	CC1CCc2c(sc3nc(C(C)(C)C)nc(N4CCN(C(=O)CCl)CC4)c23)C1 (stereo not drawn)
-0.29	i	COC(=O)C(Cc1csc2ccc(Cl)cc12)NC(=O)c1ccc(Cl)cc1 (stereo not drawn)
-0.52	i	CC(C(=O)Nc1ccccc1-c1ccccc1)N1CCCCC1 (stereo not drawn)
0.19	i	N#Cc1ccc(CSc2nnc(-c3c[nH]c4ccccc34)n2-c2ccccc2)cc1
0.92	i	CC(C)(C)C(=O)N1CCN(c2ccc(NC(=O)c3ccc4c(c3)OCCO4)cc2)CC1
-0.46	i	CCCCOc1ccccc1N1CCN(CCCN2C(=O)C3CCCN3C2=O)CC1 (stereo not drawn)
1.2	i	CC(C)=CC(=O)Nc1nnc(-c2ccc(F)cc2)s1
0.29	i	COc1ccc(N=C(N)SCc2ccccn2)cc1
1.8	i	CNC(=O)c1ccsc1NC(=O)CCS(=O)(=O)c1ccc(C)cc1
2.9	i	CCNC(=O)CN(C1CCCCC1)S(=O)(=O)c1ccc(F)cc1
0.46	i	CC(C)CN(CC(C)C)CC(O)CN(c1ccccc1)S(=O)(=O)c1ccccc1[N+](=O)[O-] (stereo not drawn)
1.1	i	COc1ccc(CC(=O)NCC2CCCN(Cc3ccc(F)cc3F)C2)cc1 (stereo not drawn)
-0.5	i	COc1cc2c(cc1OC)C(=O)CC(C)S2 (stereo not drawn)
0.64	i	COc1ccccc1CN1CC(C(=O)NCCC2=CCCCC2)CCC1=O (stereo not drawn)
0.01	i	Cc1ccc(SCc2cc(-c3ccc(Cl)cc3)on2)cc1
-2.5	i	CC(Sc1nnc(N)s1)c1ccccc1Cl (stereo not drawn)
-1	i	COc1ccc(OC)c(NS(=O)(=O)c2ccc(Br)s2)c1
-0.38	i	CC(=O)n1cc([C@@H]2C=C(C(=O)Nc3ccccc3)O[C@H](OCc3ccc(CO)cc3)C2)c2ccccc21
0.48	i	CS/C(=N\S(=O)(=O)c1cccs1)Nc1ccc(F)c(Cl)c1
-0.18	i	Cc1ccccc1C(=O)Nc1sc2c(c1C(=O)O)CCC2
0.98	i	Cc1sc2ncnc(Nc3ccc(N4CCOCC4)cc3)c2c1-c1ccccc1
0.46	i	O=C(OCCNc1ccc(C(F)(F)F)cc1[N+](=O)[O-])c1cc2ccccc2oc1=O
-0.46	i	CC(=O)OC(c1nc2ccccc2c(=O)n1C1CC2(OC1=O)c1ccccc1N1C(=O)C(C)(C)N(O)C12)C(C)C (stereo not drawn)
-1	i	Cc1ccc(S(=O)(=O)Nc2ccc(C(=O)NCc3ccccn3)cc2)cc1
1.4	i	Cn1cc([N+](=O)[O-])c(C(=O)N/N=C/c2ccc3c(c2)OCO3)n1
1.4	i	Cc1ccccc1OCC(=O)NCCc1nc2ccccc2[nH]1
1.4	i	O=C(OCC(=O)N1CCOCC1)c1ccc(F)cc1Cl
-0.59	i	C/C(=N/Nc1ccc(C(=O)O)cc1)c1ccc(O)c(O)c1O

# Shown as comma-separated lines: 15 of the compounds above
Compound,KCNQ2 inh baseline,KCNQ2 inh
CNC(=O)c1ccsc1NC(=O)CCS(=O)(=O)c1ccc(C)cc1,1.8,i
CCNC(=O)CN(C1CCCCC1)S(=O)(=O)c1ccc(F)cc1,2.9,i
CC(C)CN(CC(C)C)CC(O)CN(c1ccccc1)S(=O)(=O)c1ccccc1[N+](=O)[O-] (stereo not drawn),0.46,i
COc1ccc(CC(=O)NCC2CCCN(Cc3ccc(F)cc3F)C2)cc1 (stereo not drawn),1.1,i
COc1cc2c(cc1OC)C(=O)CC(C)S2 (stereo not drawn),-0.5,i
COc1ccccc1CN1CC(C(=O)NCCC2=CCCCC2)CCC1=O (stereo not drawn),0.64,i
Cc1ccc(SCc2cc(-c3ccc(Cl)cc3)on2)cc1,0.01,i
CC(Sc1nnc(N)s1)c1ccccc1Cl (stereo not drawn),-2.5,i
COc1ccc(OC)c(NS(=O)(=O)c2ccc(Br)s2)c1,-1,i
CC(=O)n1cc([C@@H]2C=C(C(=O)Nc3ccccc3)O[C@H](OCc3ccc(CO)cc3)C2)c2ccccc21,-0.38,i
CS/C(=N\S(=O)(=O)c1cccs1)Nc1ccc(F)c(Cl)c1,0.48,i
Cc1ccccc1C(=O)Nc1sc2c(c1C(=O)O)CCC2,-0.18,i
Cc1sc2ncnc(Nc3ccc(N4CCOCC4)cc3)c2c1-c1ccccc1,0.98,i
O=C(OCCNc1ccc(C(F)(F)F)cc1[N+](=O)[O-])c1cc2ccccc2oc1=O,0.46,i
CC(=O)OC(c1nc2ccccc2c(=O)n1C1CC2(OC1=O)c1ccccc1N1C(=O)C(C)(C)N(O)C12)C(C)C (stereo not drawn),-0.46,i

# Next part.
KCNQ2 inh baseline	KCNQ2 inh	Molecule
-0.01	i	NNC(=O)c1c(O)c2cccc3c2n(c1=O)CCC3
0.14	i	O=C(COc1ccc(Br)cc1)N(Cc1ccccc1)c1ccccn1
0.27	i	Cc1ccc(S(=O)(=O)NN2C(=O)c3ccccc3NC2c2cccc(O)c2)cc1 (stereo not drawn)
0.27	i	COc1ccc(C(NC(=O)CN2CCCCCC2)c2ccc(OC)cc2)cc1
1.6	i	O=C(O)CC/C(=N\Nc1ccc(S(=O)(=O)N2CCOCC2)cc1[N+](=O)[O-])c1cccs1
-0.01	i	CCc1nnc(NC(=O)C2CCCN2C(=O)Nc2ccccc2)s1 (stereo not drawn)
-1.2	i	COCC(C)n1c(C)cc(C(=O)COC(=O)c2c(C)nn(-c3ccccc3)c2C)c1C (stereo not drawn)
0.96	i	Cc1ccc2nc(SCC(=O)NC3CCCc4ccccc43)[nH]c2c1 (stereo not drawn)
-0.05	i	CC1(C(=O)OCC(=O)c2c[nH]c3ccccc23)CC1(Cl)Cl (stereo not drawn)
-1.2	i	COc1cccc(Nc2nc(CN3CCOCC3)nc3sc4c(c23)CCCC4)c1
-1	i	O=C(O)Cn1cc(CN2CCOCC2)c2ccccc21
-1.4	i	Cc1ccc(S(=O)(=O)NC2(C(F)(F)F)NC(=O)N(C)C2=O)cc1 (stereo not drawn)
-0.28	i	O=C(c1cccnc1)N1CCN(Cc2ccc3c(c2)OCO3)CC1
0.87*	-7.3*	CC1CCN(CC(=O)Nc2nc(-c3ccccc3)cs2)CC1
-1.8	i	Cc1ccc(S(=O)(=O)N2CCN(C(C)C(=O)Nc3ccccc3-c3ccccc3)CC2)cc1 (stereo not drawn)
0.28	i	O=C(NNC(=S)Nc1ccccc1C(F)(F)F)C1CC1
0.12	i	Cc1nc2sc(C(c3ccc(Cl)cc3)N3CCOCC3)c(O)n2n1 (stereo not drawn)
0.01	i	CCOc1ccc(C(=O)NCC(=O)NCC(c2ccccc2OC)N2CCCC2)cc1 (stereo not drawn)
1.4	i	CCCN(CCC)S(=O)(=O)c1ccc2c(c1)CCCN2C(C)=O
0.54	i	O=C(NC(=S)Nc1ncc(Br)cc1Br)c1cncc(Br)c1

# Part of the list above in another layout:
molecule,KCNQ2 inh baseline,KCNQ2 inh
Cc1ccc(S(=O)(=O)NC2(C(F)(F)F)NC(=O)N(C)C2=O)cc1 (stereo not drawn),-1.4,i
O=C(c1cccnc1)N1CCN(Cc2ccc3c(c2)OCO3)CC1,-0.28,i

# Carrying on:
KCNQ2 inh baseline	KCNQ2 inh	Molecule
2.7	i	CC(C)CCNC(=O)c1c(CSc2ccc(Cl)cc2)noc1C(=O)NCc1ccccc1
0.04	i	O=S(=O)(c1ccc(S(=O)(=O)N(Cc2ccc(F)cc2)C2CCCC2)cc1)N1CCCC1
1.8	i	Cc1ccc(Nc2nc(-c3ccncc3)nc3ccccc23)cc1
-0.1	i	O=C(O)CC(Cc1ccccc1)C(=O)NCC12CC3CC(CC(C3)C1)C2 (stereo not drawn)
0.54	i	NC(=O)CSc1nnc(C2CC2)n1-c1ccccc1
0.84	i	CN(C)S(=O)(=O)N1CCN(C(=O)N2CCCCC2)CC1
1.2	i	OCCCNC(=S)Nc1ccc2nc(-c3ccccn3)c(-c3ccccn3)nc2c1
-1.2	i	OC(COc1ccccc1)CN1CCCC1 (stereo not drawn)
-0.84	i	O=C(Nc1ccccc1)N1CCCN(c2c(Cl)cncc2Cl)CC1
-0.59	i	CCOC(=O)Cn1cnc2sc3c(c2c1=O)CCC3
-0.74	i	CC(Sc1nncs1)C(=O)Nc1ccc2c(c1)OCO2 (stereo not drawn)
0.9	i	O=C(CSc1nnc(CNC(=O)c2cccs2)o1)Nc1ccccc1
0.6	i	COc1ccc(-c2csc(Nc3ccc(S(=O)(=O)Nc4cc(C)on4)cc3)n2)cc1C
0.64	i	C[N+]1(CC(=O)OCCCc2ccccc2)CCCCC1
0.51	i	O=c1c(-c2nc3ccccc3o2)c2oc3ccccc3n2c2ccccc12
0.49	i	NC(=O)NC(CC(=O)NCCc1ccc(S(N)(=O)=O)cc1)c1ccccc1Cl (stereo not drawn)
4.7	i	O=C1c2cccc3c([N+](=O)[O-])ccc(c23)C(=O)N1O
-2.1	i	O=c1cc(-c2ccc(O)c(O)c2)oc2cc(O)cc(O)c12
-1.1	i	Cc1ccc(CCNC(=O)CNC(=S)N(Cc2ccccc2)Cc2cccnc2)cc1
-0.18	i	COc1ccc(-c2ccc3nnc(SCC(=O)Nc4ccc(NC(C)=O)cc4)n3n2)cc1
1	i	Cc1ccc(OCCCC(=O)Nc2ccc(S(=O)(=O)Nc3cc(C)nc(C)n3)cc2)cc1
0.58	i	Cc1ccc(OCC(=O)Nc2ccc(S(=O)(=O)Nc3onc(C)c3C)cc2)cc1
1.7	i	CC(Oc1cccc(Cl)c1)C(=O)Nc1cc(Cl)ccc1N1CCOCC1 (stereo not drawn)
-0.55	i	CC1CCCC(NC(=O)C2c3ccccc3C(=O)N2Cc2cccs2)C1C (stereo not drawn)
-0.24	i	O=C(Nc1nncs1)C1CC(=O)N(CCc2ccc(F)cc2)C1 (stereo not drawn)
2.6	i	COc1ccc(Cc2nc3ccc(C(=O)N(C)CCn4ccnc4)cc3o2)cc1OC
-0.13	i	CCOc1ccc(S(=O)(=O)N2CCOCC2)cc1NC(=O)CSCC(=O)Nc1ccc(C)cc1
0.98	i	CCn1c(SCC(=O)Nc2cc3oc4ccccc4c3cc2OC)nnc1-c1cccs1
0.42	i	O=C(Nc1cccc2ccccc12)c1cccc([N+](=O)[O-])c1
-1.7	i	O=C(c1ccco1)N1CCN(c2ncnc3scc(-c4ccccc4)c23)CC1
-0.44	i	C/C(=N/NC(=O)c1ccc(C)s1)c1cccc(NC(=O)c2ccoc2C)c1
-0.81	i	CC(C)Nc1nc(SC(C)C(=O)Nc2ccccc2)nc(N(C)C)n1 (stereo not drawn)
-0.64	i	O=C(Cc1cccc2ccccc12)Nc1cc(C(=O)O)cc(C(=O)O)c1
0.26	i	C=C(C)[C@H]1CC=C(C)/C(=N/NC(=O)CNc2ccccc2OC)C1
-1.3	i	Cc1c(Cl)cccc1NC(=O)CNC(=O)c1ccc(F)cc1
0.03	i	COc1ccc(-n2c(CN3CCN(Cc4ccccc4)CC3)nc3ccc([N+](=O)[O-])cc3c2=O)c(OC)c1
0.71	i	O=S(=O)(c1ccc(F)cc1)N1CCN(S(=O)(=O)c2cccs2)CC1
